Bioassay records as filed in PubChem.
Arbovirus inh: arbovirus infection inhibition; inhibition, % at 10 µM; AID 1251; 0.37% of 200,000 active; arbovirus infection cell-based antiviral screen;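 active = inhibition from about 30%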;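 also: bluetongue infection of BSR cells; cell survival read as ATP light after 72 h; 0% = infected wells without compound and 100% = uninfected wells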
RecA intein inh: Mtb RecA intein splicing inhibition. 0.75% of 290,000 active. cell-free RecA intein splicing, fluorescence. P9WHJ3. inhibition, %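 (about 9 µM by stock and volumes)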; in the data active = inhibition above about 30%; inconclusive = no clear call, values can overlap the other calls;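 also: 0% = vehicle wells and 100% = reference inhibitor control wells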
Target sequence (P9WHJ3 whole entry, looked up): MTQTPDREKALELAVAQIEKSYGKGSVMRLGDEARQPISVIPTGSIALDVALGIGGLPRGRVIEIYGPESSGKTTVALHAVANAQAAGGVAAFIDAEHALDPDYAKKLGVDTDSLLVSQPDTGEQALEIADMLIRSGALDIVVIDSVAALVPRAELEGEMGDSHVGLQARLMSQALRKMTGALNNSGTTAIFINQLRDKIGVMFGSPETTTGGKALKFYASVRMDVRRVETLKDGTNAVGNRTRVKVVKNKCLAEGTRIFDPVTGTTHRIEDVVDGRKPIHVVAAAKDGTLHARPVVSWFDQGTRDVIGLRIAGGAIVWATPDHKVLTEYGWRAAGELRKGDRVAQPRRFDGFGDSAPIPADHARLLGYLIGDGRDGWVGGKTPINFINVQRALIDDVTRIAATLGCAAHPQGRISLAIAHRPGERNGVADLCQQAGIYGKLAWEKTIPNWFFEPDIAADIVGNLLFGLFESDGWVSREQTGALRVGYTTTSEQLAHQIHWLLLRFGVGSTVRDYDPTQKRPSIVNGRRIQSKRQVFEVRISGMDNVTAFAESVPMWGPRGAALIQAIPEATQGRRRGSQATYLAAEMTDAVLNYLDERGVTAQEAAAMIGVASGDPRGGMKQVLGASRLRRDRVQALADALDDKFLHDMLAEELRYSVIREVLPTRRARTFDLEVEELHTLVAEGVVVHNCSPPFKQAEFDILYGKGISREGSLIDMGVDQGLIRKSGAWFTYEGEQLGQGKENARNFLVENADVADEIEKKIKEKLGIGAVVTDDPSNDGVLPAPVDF
Mtb bLac sens: beta-lactam sensitization of Mtb H37Rv; M. tuberculosis H37Rv growth with meropenem, percent inhibition; hits of this screen are not shown here; 0.27% of 330,000 active; inhibition, % at 25 µM;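 active = about 74% or more and at least 40 points above the plate without the antibiotic, then above 30% in a dose series; inconclusive = first-round hits that could not be retested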;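 also: growth measured after seven days incubation then overnight dye step; 0% = bacteria only wells and 100% = bacteria with antibiotic; twin plates without the antibiotic show which effects depend on it; some results filed as inactive read as strong as hits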
YopH inh: blocks Yersinia enterocolitica YopH tyrosine phosphatase; inhibition, %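 (about 10 µM by stock and volumes)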; fluorescence Ex485/Em525; AID 898; 0.16% of 140,000 active;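 active = inhibition of 50% or more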;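 also: controls were vehicle for no effect and minimum signal wells for full effect; inactives centre near -20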
Mtb H37Rv: M. tuberculosis H37Rv growth inhibitors, H37Rv strain (AID 1626); M. tuberculosis H37Rv growth inhibition; higher % means a stronger effect; inhibition, % at 10 µM; hits with a dose series show IC50 in µM; 0.95% of 220,000 active;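 active = confirmed in a dose series; inconclusive = inhibition above 80% but not taken into the dose series; inactive = below 80% or under 30% at every dose of the series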;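 also: bacteria incubated seven days before Alamar blue readout; 0% = bacteria only wells and 100% = bacteria with antibiotic wells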
Arbovirus inh repeat: further read-out of Arbovirus inh, marked with its call; inhibition, %; measured here: 10K subset replicate screen; many hits read low in the repeat;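 first of two repeat runs on a subset; 0% = infected and 100% = uninfected wells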
* hit, by the source's call; u = inconclusive; x = no result given; & = joins results of further samples. Only part of the results is shown, so the mix of outcomes need not match the whole.

SMILES	Arbovirus inh	RecA intein inh	Mtb bLac sens	YopH inh	Mtb H37Rv	others
O=[N+]([O-])c1cnccc1Nc1ccc(F)cc1	4.1	2.4	1.8	-11.9	-4.8%
O=C(Nc1ccccc1-c1ccccc1)c1ccc(NC(=O)c2ccco2)cc1	-20.6	-0.7	58.0	-6.1	18.9%
CCOc1ccccc1-n1c(=S)sc2c(=O)n(-c3ccc(C)cc3)c(=S)[nH]c21	11.8	-1.2	19.6	x	21.7%
CCc1nnc(NC(=O)CSc2nnc(CNc3ccc(OC)cc3)n2CC)s1	6.9	-1.9	-4.4	x	0.6%
CC(C(=O)N1CCN(c2ccc([N+](=O)[O-])cc2)CC1)N1C(=O)C2CC=CCC2C1=O (stereo not drawn)	6.3	0.2	11.3	x	-5.3%
CCOC(=O)C1C(=O)NC(N2CCN(Cc3ccccc3)CC2)=NC1c1ccccc1 (stereo not drawn)	2.6	-0.5	-7.8	-25.7	6.2%
Cn1c(CNC(=O)CCNC(=O)c2cccc(Br)c2)cc(=O)n(C)c1=O	x	4.6	10.1	x	x
Cc1ccccc1CNC(=O)C1CCC(=O)N(Cc2cccc(F)c2)C1 (stereo not drawn)	x	4.1	1.5	x	x
C=CCn1c(SCC(=O)c2cc(C)n(CCOC)c2C)nc2sc(C)c(C)c2c1=O	-3.4	0.6	1.5	-36.4	5.4%
CC1CCC2(CC1)NC(=O)N(CC(=O)N1CCc3ccccc3C1)C2=O (stereo not drawn)	0.4	-3.2	0.7	x	-0.1%
C/C(=C/c1ccccc1)C(=O)N1CCC(C)CC1	x	-0.2	0.7	x	x
O=C(CC(Nc1cccc(Cl)c1Cl)C(=O)O)c1ccccc1 (stereo not drawn)	12.1	-1.1	-13.4	x	-4.7%
O=C(/C=C/c1ccccc1Cl)Nn1cnc2ccccc2c1=O	-16.5	-0.6	-0.5	-23.2	-2.5%
O=C(Nc1ncc2c(n1)-c1ccccc1CC2)c1ccc(Cl)cc1	-4.3	1.2	2.8	-32.8	-3.9%
COCCn1nnnc1C(CC(C)C)N1CCN(c2cccc(OC)c2)CC1 (stereo not drawn)	3.1	-3.0	x	-19.3	-0.5%
Nn1cc(-c2ccccc2)nc1SCC(=O)Nc1ccc2c(c1)OCO2	-11.4	-0.8	0.9	-12.1	3.3%
CC(C)CCNC(=O)C(=O)Nc1cc2c3c(c1)CC(=O)N3CCC2	x	6.0	-0.3	x	x
Cc1cc(C)c(S(=O)(=O)N2CCCc3ccccc32)c(C)c1	x	2.4	3.9	x	x
Cc1cc(C(=O)NCC(=O)O)c(C)o1	-13.8	-0.4	6.3	-20.0	-11.0%
CCC(=O)Nc1ccc2c(c1)N(C(C)=O)c1ccccc1CC2	x	-0.2	-6.5	x	x

No new results follow: entries from further up.
SMILES	Arbovirus inh	RecA intein inh	Mtb bLac sens	YopH inh	Mtb H37Rv	others
CC(C)CCNC(=O)C(=O)Nc1cc2c3c(c1)CC(=O)N3CCC2	x	6.0	-0.3	x	x
Cc1cc(C)c(S(=O)(=O)N2CCCc3ccccc32)c(C)c1	x	2.4	3.9	x	x
Cc1cc(C(=O)NCC(=O)O)c(C)o1	-13.8	-0.4	6.3	-20.0	-11.0%
CCC(=O)Nc1ccc2c(c1)N(C(C)=O)c1ccccc1CC2	x	-0.2	-6.5	x	x

The listing picks up, starting 5 compounds before the break.
SMILES	Arbovirus inh	RecA intein inh	Mtb bLac sens	YopH inh	Mtb H37Rv	others
Nn1cc(-c2ccccc2)nc1SCC(=O)Nc1ccc2c(c1)OCO2	-11.4	-0.8	0.9	-12.1	3.3%
CC(C)CCNC(=O)C(=O)Nc1cc2c3c(c1)CC(=O)N3CCC2	x	6.0	-0.3	x	x
Cc1cc(C)c(S(=O)(=O)N2CCCc3ccccc32)c(C)c1	x	2.4	3.9	x	x
Cc1cc(C(=O)NCC(=O)O)c(C)o1	-13.8	-0.4	6.3	-20.0	-11.0%
CCC(=O)Nc1ccc2c(c1)N(C(C)=O)c1ccccc1CC2	x	-0.2	-6.5	x	x
Cn1ncc2c(NCc3ccccc3)ncnc21	-1.6	1.5	11.1	-39.8	1.8%&0.0%
O=C1Cc2ccccc2C(c2ccc(Br)cc2)N1 (stereo not drawn)	2.6	0.5	6.6	-6.6	-0.9%
O=C(CNC(=O)OCc1ccccc1)Nc1ccc(Br)cc1C(=O)c1ccccc1	-5.8	7.4	47.2	11.7	9.1%
COc1cccc(CN(C)C(=O)c2cc(S(=O)(=O)NCc3ccccc3)ccc2C)c1OC	x	1.6	-1.1	x	x
CC(C)c1ccc(NC(=O)C(c2ccccc2)N(C)C(=O)CCc2c[nH]c3ccccc23)cc1 (stereo not drawn)	x	-1.5	14.8	x	-4.3%
CCc1ccc(C2NC(=S)NC3=C2C(=O)CC(C)(C)C3)cc1 (stereo not drawn)	4.3	-14.7	-7.7	-14.8	14.3%
CCCCC(=O)Nc1ccc2oc(-c3ccncc3)nc2c1	-15.1	-1.5	3.2	5.8	7.0%
CC(=O)Nc1ccc(OCC(=O)N2CCc3ccccc3C2)cc1	x	2.7	1.9	x	x
COc1cc(/C=N/NC(=O)CCc2n[nH]c(=O)[nH]c2=O)ccc1O	-7.9	-5.3	-9.3	-11.1	-6.5%
COc1ccc2c(c1)[nH]c1c(=O)n(CCN(C)C)cnc12	5.2	0.8	2.8	-5.8	-2.1%
CC(C)(C)n1cnnc1Sc1ncccc1[N+](=O)[O-]	x	-8.6	41.9	x	-0.7%
CC(C)[C@@H](NC(=O)C1CCC(CNC(=O)[C@H](Cc2ccccc2)NC(=O)OC(C)(C)C)CC1)C(=O)O (stereo partly drawn)	x	0.4	2.1	x	x
COc1ccc(C2=C(Nc3ccc(F)cc3)c3ccccc3C2=O)cc1	-2.6	4.7	58.5	-21.8	-6.4%
COCCn1c(-c2ccc(-c3ccccc3Cl)o2)nc2c1c(=O)[nH]c(=O)n2CC(C)C	-3.4	1.3	u	-31.8	-2.2%
Cc1cc(C)nc(SCc2ccc(C(=O)NN=C3CCCC3)cc2)n1	-1.2	x	1.0	x	-5.6%
CS(=O)(=O)N(CC(=O)NCc1ccc2c(c1)OCO2)C1CCCCC1	0.1	11.1	-5.9	x	-4.6%
O=C(Nc1ccc(Br)cc1)C1CCN(C(=O)c2ccc(F)cc2)CC1	15.0	-2.5	-4.6	-3.8	-3.5%
O=S(=O)(NC1CC1)c1ccc(S(=O)(=O)N2CCCC3(CCCCC3)C2)cc1	7.0	-1.9	-7.8	-26.2	-9.0%
CCOC(=O)CSC1=C(C#N)C(C)C2=C(CCCC2=O)N1 (stereo not drawn)	-5.5	27.7	23.5	-27.7	-2.1%
CC(C)(C)NS(=O)(=O)c1ccc(CCC(=O)N2CCOCC2)cc1	4.1	1.4	2.9	-15.5	-6.1%
CCCc1nc2sc3c(c2c(=O)n1NC(=O)CCC(=O)O)CCCC3	1.0	-2.4	u	-137.7	-11.0%
O=C(COC(=O)CC1c2ccccc2CCN1S(=O)(=O)c1ccc(F)cc1)Nc1ccccc1 (stereo not drawn)	8.4	9.1	-2.4	-0.6	-3.7%
C/C(=N\NC(=O)c1cc(C(C)C)[nH]n1)c1ccco1	2.2	0.9	0.3	1.0	4.5%
CCc1nnc(NC(=O)c2ccc3c(=O)n4c(nc3c2)CCCCC4)s1	x	-3.1	8.0	x	-4.4%
COc1ccc2c(c1OC)C(=O)N(c1cccc(/C=C/C(=O)O)c1)C2	x	0.0	-1.9	x	x
CCOC(=O)c1c(C)[nH]c(C(=O)COC(=O)CN2C(=O)C3CCCCC3C2=O)c1C (stereo not drawn)	5.2	-3.0	-4.7	-26.1	-14.8%
CCCCC(=O)NCCc1ccc(OC)cc1	1.0	-1.1	-8.1	-38.7	-3.7%
O/N=C/c1cn(-c2ccccc2)nc1-c1ccc2c(c1)OCCO2	15.7	6.3	-0.6	-54.2	-10.4%
COc1cc(SC)ccc1C(=O)Nc1cccc(C)n1	9.2	-0.8	-5.0	x	-9.4%
COc1ccc(CNC(=O)C2CCN(S(=O)(=O)c3ccc4c(c3)CC(C)N4C(=O)C3CC3)CC2)cc1 (stereo not drawn)	x	0.5	0.1	x	x
COc1ccc(-c2nn(-c3ccccc3)cc2/C=N/n2cnnc2)cc1OC	-14.6	1.9	-2.2	-18.9	-15.3%	Arbovirus inh repeat=-2.3
CCOc1ccc(-c2csc(N)c2C(=O)OC)cc1	-13.0	-2.1	-1.1	6.3	7.9%
COc1ccc(N2C(=O)CS/C2=N\C(=S)Nc2ccccc2)cc1	x	-1.2	-5.1	x	-9.2%
Cc1nn(C)c(C)c1S(=O)(=O)N1CCC(C(=O)NCCC2=CCCCC2)CC1	6.6	-0.3	-6.2	-39.9	-9.4%
Cc1cc(C(=O)NNC(=S)NC(=O)/C=C/c2ccccc2Cl)n[nH]1	-8.2	4.6	-12.5	-4.6	0.3%
N#Cc1ccccc1NC(=O)CSc1nnc(-c2ccc(F)cc2)n1-c1ccccc1	-0.3	4.1	x	15.2	x
Cc1c(S(=O)(=O)N2CCc3ccccc3C2)c(=O)n(C)c(=O)n1C	3.6	1.9	-3.8	-26.1	-1.4%	Arbovirus inh repeat=0.4
COc1cc(OC)cc(C(=O)NC(=S)Nc2nnn(C)n2)c1	x	0.7	-5.1	x	-5.6%
CC[C@H]1CN2CC[C@@]3(C(=O)Nc4ccccc43)[C@@H]2C[C@@H]1/C(=C\OC)C(=O)OC	x	2.0	4.0	x	-6.1%
CC(C)(C)Nc1c([N+](=O)[O-])c(=O)sc2ccccc12	2.1	2.6	1.8	x	-10.8%
CCOC(=O)CS(=O)(=O)c1ccc(C(F)(F)F)cn1	2.9	-1.5	-3.9	-52.9	-7.4%
Cc1ccc(OCc2cc(C(=O)N(C)CCc3ccccc3)no2)cc1C	x	6.8	-4.9	x	x
COc1ccc2[nH]c3c(NCc4ccco4)ncnc3c2c1	-7.0	x	19.7	15.8	-3.5%
CCc1ccc(NC(=O)CSc2ccccn2)cc1	-1.8	0.5	95.2	x	22.1µM*
Cc1noc(C)c1CSCC(=O)N(C)CC(=O)Nc1ccc(Cl)cc1	x	-1.3	0.7	x	x
CCN1CCN(S(=O)(=O)c2ccc(Cl)c(C(=O)N(C)Cc3ccc(F)cc3)c2)CC1	x	-3.0	-2.9	x	x
CCCCCCCCSc1nnc2[nH]c(=O)cc(N)n12	-11.3	-6.9	4.4	x	3.9%
COC(=O)C(C)n1cnc2c(nnn2-c2ccccc2)c1=O (stereo not drawn)	x	-12.9	-1.2	x	x
COc1cc(-c2nnc(NC(=O)c3ccc(S(=O)(=O)N4CCOCC4)cc3)o2)cc(OC)c1OC	-1.1	x	10.1	x	-2.9%
CN(c1ccccc1)S(=O)(=O)c1ccc(NC(=O)c2ccc(F)cc2)cc1	x	9.2	5.2	x	x
COc1ccc(NC(=O)Nc2ccc3c(c2)CCC3)c(OC)c1	1.8	-2.4	-0.2	x	5.3%
CCn1c(SCC(=O)OCC(=O)N2c3ccccc3NC(=O)C2(C)C)nnc1-c1ccco1	3.8	2.7	-4.3	-31.8	-9.0%
COc1ccc(-c2oc3ccccc3c2C(=O)OCc2ccccc2OC)cc1	x	0.4	10.5	x	x
Cc1ccc(NC(=O)N2CCCCC2)cc1[N+](=O)[O-]	x	5.2	-3.0	x	-11.8%
COC(=O)c1ccccc1-c1ccc(C(c2c(C)[nH][nH]c2=O)c2c(C)[nH][nH]c2=O)o1	-10.5	95.5*	-3.0	x	0.6%
